From PubChem
Tgondii IFNg: T. gondii growth inhibition with IFN-gamma, primary screen, cell-based; Toxoplasma gondii growth in IFN-gamma-treated host cells; hits give low values; reference of the scale not given here; 69,000 compounds, 3.8% hits; activity change, negative = inhibition, %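 (about 20 µM by stock and volumes)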; AID 1259416, 2018;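 active means below -70%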;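 further: host cells are HeLa cells infected with Toxoplasma gondii; parasite growth read as luciferase light; one replicate is shown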
* hit, by the source's call; i = inactive; & = joins results of further samples. A portion of the library; count on the stated rates, not on these rows.

structure,Tgondii IFNg
O=C(Nc1ccc(F)cc1)N1C[C@@H]2[C@H](c3ccccc31)[C@H](CO)N2Cc1ccccc1Cl,37
CN(C)C(=O)N1CC(=O)NCC12CCN(C(=O)Nc1ccccc1)C2 (stereo not given),5
CN(C)C(=O)N1CCc2c(nnn2C)C1COCc1cccnc1 (stereo not given),0
COc1ccc2c3c([nH]c2c1)[C@H](CO)N(S(=O)(=O)c1ccc(C)cc1)CC31CCN(Cc2nccs2)CC1,-35
O=C1CCC(C(=O)Nc2cccc(-c3nc4ccccc4s3)c2)=NN1,65
O=P(O)(O)C(Sc1ccc(Cl)cc1)P(=O)(O)O,-11&25
CCCNC(=O)N1[C@H](CO)[C@@H]2c3ccccc3N(C(=O)c3ccncc3)C[C@@H]21,-9
CN(Cc1ccco1)Cc1cnc2n1CCN(S(C)(=O)=O)CC2,6
Cc1nc(C)n(CCNC(=O)CC2COCCN2)n1 (stereo not given),-4
Cc1noc(CN(C)C(=O)c2cc(C(C)C)no2)n1,-6
Cc1ccc(C)c(-c2coc(-c3ccc(NC(=O)Nc4ccc5c(c4)OCO5)cc3)n2)c1,34
C/C=C/c1ccc([C@@H]2[C@H](CO)N[C@H]2CN(CC)C(=O)CN2CCOCC2)cc1,-1
COCC(=O)N1CCc2onc(CNc3ncccn3)c2C1,9
COc1ccc(-c2nccn2CCCn2ccnc2)c2ccccc12,5
O=C(C[C@H]1CC[C@H]2NC[C@@H](O)COC[C@@H]2O1)NCCN1CCCCC1,-16
O=C(c1cccc(F)c1)N1CC[C@@H]2[C@H](CO)Nc3ccc(C#CC4CC4)cc3[C@@H]21,2
Cc1nccn1CC1CCCN(Cc2cnc3cc(O)ccc3c2)C1 (stereo not given),-5
Cn1c2c(cc(C(=O)N3[C@@H]4CC[C@H]3CNC(=O)C4)c1=O)CCCC2,2
CCc1nc(N2[C@H](CO)[C@H](c3ccccc3-c3ccc(F)cc3)[C@@H]2C#N)sc1C,28
CCOCC1c2c(cnn2C)CCN1C(=O)CCc1ccccc1C (stereo not given),165
CC(=O)c1c(CSCc2ccccc2)oc2ccc(O)c(CN(C)C)c12,-40
C=CCOCC1CN(Cc2cnn(C)c2)Cc2nccn2C1 (stereo not given),-1
CC(C)N1CCc2c(nc(C(=O)NCc3cccc(F)c3)n2C(C)C)C1,-7
O=C(O/N=C1/CCCc2occc21)c1ccccc1,10
O=C(Nc1nccs1)[C@@H]1[C@@H](CO)[C@@H]2Cn3c(cccc3=O)[C@H]1N2C(=O)C1CC1,-9
C[C@H]1CNC(=O)[C@H](Cc2ccc(C(F)(F)F)cc2)CCn2nncc2COC1,-14
Cc1nn(C)cc1NC(=O)C[C@@H]1CC[C@H]2[C@H](COc3ccc(NC(=O)C4CCOCC4)cc3C(=O)N2C)O1,9
CC1c2ncc(COCC3CC3)n2CCN1C(=O)N(C)C (stereo not given),-2
O=C(c1cccc(F)c1)N1CCCCN2[C@H](CO)[C@H](c3ccc(C#CC4(O)CCCC4)cc3)[C@H]2C1,-22
CC(C)C(C(=O)O)N1C(=O)NC2NC(=O)NC21 (stereo not given),-19

As entered above.
For Tgondii IFNg, C=CCOCC1CN(Cc2cnn(C)c2)Cc2nccn2C1 (stereo not given) reads -1
For Tgondii IFNg, C/C=C/c1ccc([C@@H]2[C@H](CO)N[C@H]2CN(CC)C(=O)CN2CCOCC2)cc1 reads -1
For Tgondii IFNg, C[C@H]1CNC(=O)[C@H](Cc2ccc(C(F)(F)F)cc2)CCn2nncc2COC1 reads -14

Among those listed so far, three contain a furan ring, fused or not:
structure,Tgondii IFNg
CN(Cc1ccco1)Cc1cnc2n1CCN(S(C)(=O)=O)CC2,6
CC(=O)c1c(CSCc2ccccc2)oc2ccc(O)c(CN(C)C)c12,-40
O=C(O/N=C1/CCCc2occc21)c1ccccc1,10

Compounds from the list above containing a Cl atom (2):
structure,Tgondii IFNg
O=C(Nc1ccc(F)cc1)N1C[C@@H]2[C@H](c3ccccc31)[C@H](CO)N2Cc1ccccc1Cl,37
O=P(O)(O)C(Sc1ccc(Cl)cc1)P(=O)(O)O,-11&25

Remaining list, next part:
structure,Tgondii IFNg
COc1ccc(Br)c(C(=O)N2CCc3[nH]cnc3C23CCCC3)c1,-25
COCCN1[C@@H]2CCN(C(=O)CC3CC3)CC[C@@H]2Oc2ccccc2S1(=O)=O,11
CC1(C)C(=O)OC(c2cccs2)C2(CCCCC2)C1=O (stereo not given),5
COCc1nnc(NC(=O)CSCc2ccc(Cl)c(Cl)c2)s1,4
Cc1onc(-c2ccccc2)c1C(=O)N[C@@H]1C(=O)N2[C@@H](C(=O)O)C(C)(C)S[C@@H]12,14
Cc1nc(-c2noc3ccc(C(=O)N(C)C)cc23)co1,-51
CNC[C@@H]1OCc2cn(nn2)CCCC(=O)N([C@@H](C)CO)C[C@H]1C,67
O=C(c1ccc(-c2cccs2)s1)N1CCN(c2ncccc2C(F)(F)F)CC1,-47
OC(COC1CCCCC1)CN1CCCCC1 (stereo not given),-3
Cc1nnsc1C(=O)ON=C1CCCCCCCCCCC1,-1
CCn1nnc2c1C(COC)CN(C(=O)CC1=CCCCC1)C2 (stereo not given),4
C[C@@]1(O)CCN(c2nc(-c3ccccc3)no2)C[C@@H]1Cc1ccccc1,-31
CCOC(=O)[C@@]12CCCN(C(=O)c3ccccn3)C[C@@H]1CN(C(C)=O)C2,9
CCOCc1ccc(C(=O)NC2CCCN(c3ncc4c(n3)CCOC4)C2)cc1 (stereo not given),196
COCC(=O)N1CCc2cc(C(=O)O)c(-c3ccnn3C)nc2CC1,3
CCc1ccccc1NC(=O)Cn1ncc2c(N3CCN(c4ccccn4)CC3)ncnc21,-56
O=C(CC1N=C2c3ccccc3N=C(SCc3ccc(F)cc3)N2C1=O)NCc1cccs1 (stereo not given),-12
COc1cccc(-c2cc(C(F)(F)F)n3ncc(C(=O)Nc4cc(C)on4)c3n2)c1,-68
CC(=O)C(C)(C)OC(=O)NCCc1ccc(Cl)cc1,-76*
Cc1ccc(OCC(=O)N2CCC(n3cc(CCO)nn3)CC2)cc1C,-38
CC(=O)N1C2CCN(S(C)(=O)=O)CC2C[C@H]1Cn1cncn1 (stereo not given in full),12
O=C(CCC1N=C2c3ccccc3N=C(SCc3ccc(Cl)cc3)N2C1=O)NCc1ccc2c(c1)OCO2 (stereo not given),1
COc1ccc(Cc2cnc(NC(=O)Cn3c(C)cc(C)nc3=O)s2)cc1,-35
COc1cccc(C2(O)CCN(CCNC(=O)C3=NNC(=O)CC3)CC2)c1,-58
CCOCC1c2c(cnn2CC)CCN1C(=O)CCc1ccccc1C (stereo not given),-11
O=C(C[C@@H]1CC[C@H]2NC[C@@H](O)COC[C@@H]2O1)NCc1ccc2c(c1)OCO2,24
CN(C)C(=O)c1ccc(-c2ccc([C@H]3[C@H](CO)N4C(=O)CN(C(=O)CC5CC5)C[C@@H]34)cc2)cc1,-53
CCN(CC)Cc1cn2c(n1)CN(S(=O)(=O)c1ccccc1)CC2,-61
COc1ccc(OC)c(-c2cc(C(=O)NC(C)c3ccc4c(c3)CCC4)[nH]n2)c1 (stereo not given),75
CCn1c(C2CCCNC2)nn(CCC(=O)N2CCCC2)c1=O (stereo not given),0
O=C(NCC1CCN(Cc2ccc3nonc3c2)C1)c1ccccn1 (stereo not given),-8
CCCCOc1ccc(-c2cc3c(=O)n(Cc4nc(-c5ccc(C)cc5)oc4C)ccn3n2)cc1,-56
COCC1CN(C(=O)COc2ccccc2C)Cc2ncn(C)c21 (stereo not given),-5
CCn1c2c(ccc1=O)CC(NCc1nccs1)CC2 (stereo not given),i
C[C@H]1CN([C@@H](C)CO)S(=O)(=O)c2ccc(C#CC3(O)CCCC3)cc2O[C@H]1CN(C)C(=O)Nc1cccc(F)c1,-62
CCN1CC(C(=O)O)CN2CCN(C(=O)c3ccncc3F)CC2C1 (stereo not given),-31
C[C@H](CO)N1C[C@H](C)[C@@H](CN(C)Cc2ccc(Oc3ccccc3)cc2)Oc2ccc(N(C)C)cc2C1=O,66
Cc1cccc(S(=O)(=O)N2CC[C@@H]3[C@H](CO)Nc4ccc(-c5ccccc5F)cc4[C@@H]32)c1,-43
CCn1ccnc1CN1CCCC(c2cccc(Cc3ccc(Cl)cc3)n2)C1 (stereo not given),14
Cc1ccc(S(=O)(=O)c2ccc(Cl)c(N)c2)cc1,65
CCOC[C@@H]1CCC2C(CCN2C(=O)NCc2cccc(F)c2)O1 (stereo not given in full),101
CCN1c2cc(F)ccc2C(=O)NC12CCN(C(=O)c1cccc(C)c1)CC2,21
Cc1ccc(NC(=O)CN2C(=O)CCc3cc(S(=O)(=O)N4CCCCC4)ccc32)cc1,3
Cc1c[nH]c(=O)n(CCCN2CCN(c3ccccc3OCC(F)(F)F)CC2)c1=O,6&-7
Clc1ccc(-c2csc(-c3ccc(-n4cncn4)nc3)n2)cc1,4
COc1ccc2c(c1)NC1(CCN(C(=O)c3c(F)cccc3F)CC1)c1cccn1-2,19
Cc1onc(C(C)C)c1C(=O)N1CCC(c2cc(C(F)(F)F)c3c(N)[nH]nc3n2)CC1,-75*
Cc1ccc(-c2coc(-c3ccc(NC(=O)C4CCCCC4)cc3)n2)cc1,31
COc1cc(-c2nc(CN3CCOCC3)c(C)o2)cc2c1OCO2,88
Cc1cccc(CN2CCC(N3CCC(C(=O)NC4CCOC4)CC3)CC2)n1 (stereo not given),5
CC[C@H](C)[C@H](NC(=O)OCC1c2ccccc2-c2ccccc21)C(=O)O,i
Cc1nnc(Sc2nc3ccc(Cl)cc3s2)n1-c1ccc2c(c1)OCCO2,-15
O=C(c1cc2cccnc2n(Cc2ccc(Cl)cc2)c1=O)N(Cc1ccccc1)c1ccccc1,6
CCCCCC1CC(CC(C)C(=O)Nc2nncs2)C(=O)O1 (stereo not given),-1
N#Cc1ccc(-c2ccc([C@H]3[C@@H](CO)N4C(=O)CNC[C@H]34)cc2)cc1,30
Cc1cc(C(F)F)n2ncc(C(=O)Nc3cc(-c4csnn4)ccc3C)c2n1,3
CCCCNc1nc(-c2nnc(-c3ccccc3)o2)nc2ccccc12,-89*
COc1ccc(-n2cccn2)c(CN2CC(c3ccncc3)C2)c1,-4
C=CCOc1ccccc1CN(CC)C(=O)c1c(C)n[nH]c1C,12
O=C(CCO)N1CCOC2CC(COc3ccccn3)CC21 (stereo not given),1

Carrying on.
structure,Tgondii IFNg
O=C(Cn1c(=O)cc(C(=O)N2CCOCC2)c2ccccc21)Nc1ccc(Cl)cc1,20
CC(C)NC(=O)N1CCN(c2ccc3ccc(C(=O)CCN4CCOCC4)cn23)CC1,-15
O=C(c1ccoc1)N1CCCC2(CCN(c3cncnc3)C2=O)C1 (stereo not given),1
Fc1cnc(N2CCc3ncc(CNc4ccccn4)n3CC2)nc1,-3
O=C(N[C@H]1C=C[C@H](CC(=O)N2CCN(c3ccccc3)CC2)O[C@@H]1CO)c1ccccc1,17
CN(c1ccc(F)cc1)c1nc(-c2ccc(Cl)cc2)nc2ccccc12,-58
O=C1OCC2(CCN(Cc3cc4n(n3)CCNC4)CC2)O1,3
CCCNC(=O)N1CC2(C1)[C@@H](c1ccccc1)[C@H](CO)N2C(=O)CC1CC1,40
Cc1ccccc1-c1ccccc1[C@H]1[C@@H](C#N)N(C(=O)c2ccc(F)cc2)[C@H]1CO,-16
CCOC(=O)c1ccc(NC(=O)N2CCC3(CC2)c2cccn2-c2ccc(C)cc2N3CC)cc1,-46
CC(C)CNC(=O)C1=NOC2(CCN(C(=O)c3ccccn3)C2)C1 (stereo not given),0
Cc1noc(C)c1S(=O)(=O)N(C)C[C@@H]1Oc2c(NC(=O)c3ccc(-c4nccs4)cc3)cccc2C(=O)N([C@H](C)CO)C[C@@H]1C,-54
CCCC(=O)N1CCC2(CC1)CN(C(=O)C1CCC1)[C@H](CO)c1[nH]c3cc(OC)ccc3c12,-27
O=C(c1cc(-c2cccnc2)n[nH]1)N1CCN(C(=O)c2cccc3[nH]ccc23)CC1,53
O=C(NCCc1cnn(-c2ccccc2)c1)[C@H]1Cc2ccccc2CN1,4
O=C(Cn1ncc2c(N3CCN(c4ccccn4)CC3)ncnc21)Nc1ccccc1C(F)(F)F,30
Cc1noc(CN(C)C(=O)C(C)n2ccnc2C(C)C)n1 (stereo not given),-19
CC(C)c1cc(Cn2ccnc2-c2ccc3c(c2)OCCO3)on1,-19
Cc1c(C(=O)NCCC(=O)N2CCCCC2)cnn1C,-5
Cc1ccccc1Cn1c(CN2CCC(C(=O)N3CCCC3)CC2)cc2ccccc21,-3
COc1ccc(C(=O)NCCNC(=O)c2cnccn2)cc1OC,-23
CCCC1COCCN1Cc1cc(C)[nH]n1 (stereo not given),-47
COc1ccc(Cc2n[nH]c(=O)n2-c2ccc(OC)cc2C)cc1,-2
O=C(O)c1ccccc1C(=O)NC1=NN(c2ccccc2)CC1,-5
Cc1nn(-c2ccccc2)nc1C(=O)ONC(=O)Cc1ccccc1,37
CC(C)CCNC(=O)Cn1ncc2c(N3CCN(c4ccccn4)CC3)ncnc21,27
CN1Cc2ccccc2CC2(CCN(C(=O)c3ccc[nH]3)CC2)C1=O,-9
O=C(C[C@@H]1C=C[C@H](NC(=O)c2ccncc2)[C@@H](CO)O1)NCC1CC1,-34
O=c1[nH]c2ccccc2c(O)c1C1=NS(=O)(=O)c2ccccc2N1,-4
CCOc1ccccc1NC(=O)CC(=O)NC(C)c1nc2c(s1)CCCC2 (stereo not given),4

Grouped by structure, those above containing an aryl thioether with sulfur outside any ring.
structure,Tgondii IFNg
O=P(O)(O)C(Sc1ccc(Cl)cc1)P(=O)(O)O,-11&25
Cc1nnc(Sc2nc3ccc(Cl)cc3s2)n1-c1ccc2c(c1)OCCO2,-15
